Screening results deposited in PubChem by National Center for Advancing Translational Sciences (NCATS).
SARS PLpro yeast = blocks SARS-CoV papain-like protease in a yeast assay; S. cerevisiae expressing SARS-CoV PLpro, growth rescue; control for the full effect not named in the record; Potency, µM (doses to about 32.9 µM), for the others: top-dose activity, positive = growth rescue; 330,000 compounds, 0.19% hits; AID 485353; active means well fitted rising curve with a large enough effect; inconclusive means small, poorly fitted or top-dose-only effect; inactive means no such curve, though single readings can be large or run the other way; note: 0% is about no effect; nearly all actives have a fitted effect of over 55% in size; growth read by luminescence after 48 h
RE007 growth inh = less growth of the S. pombe RE007 Vpr strain; S. pombe RE007 Vpr strain, BacTiter-Glo ATP luminescence, 24 h; control for the full effect not named in the record; Potency, µM (doses to about 92.2 µM), for inactives: at the highest dose activity change, negative = less growth; 360,000 compounds, 0.21% hits; AID 651644; active = well fitted falling curve with a large enough effect; inconclusive = small, poorly fitted or top-dose-only effect; inactive = no such curve, though single readings can be large or run the other way;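 note: % is set by controls: 0 for no effect and ±100 for the full control effect; nearly all actives have a fitted effect of over 50% in size; the assay follows cell death caused by Vpr and the record does not say whether a fall means rescue or toxicity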
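Fission yeast RE007 carrying one integrated HIV-1 vpr copy, seeded at OD 0.01 in PMG+AL medium with 23 nL pinned compound. Grown 24 h at 30 degrees; viability read by BacTiter-Glo luminescence after 5 min.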
2A StopGo = FMDV 2A StopGo reporter, luciferase signal. Potency, µM (doses to about 57.9 µM), for the others: at the top dose signal change, negative = less light. human cells with a luciferase reporter of 2A StopGo recoding; control for the full effect not named in the record. 410,000 compounds, 1.2% hits; active = well fitted falling curve with a large enough effect; inconclusive = small, poorly fitted or top-dose-only effect; inactive = no such curve, though single readings can be large or run the other way; tested in HEK293T cells; note: % is set by controls: 0 for no effect and ±100 for the full control effect; nearly all actives have a fitted effect of over 45% in size; luciferase light after 4 h
An asterisk follows results filed as active; ? = inconclusive; [ ] = dose if it differs, or a comment. Potency is the fitted concentration of half-maximal effect. This is a subset (hit frequency here may not be typical).

Sample of the layout (two entries):
SMILES	SARS PLpro yeast	RE007 growth inh	2A StopGo
C[C@@H]1CN([C@H](C)CO)C(=O)c2cc(NC(=O)C3CCCCC3)ccc2O[C@@H]1CN(C)Cc1ccc(C(F)(F)F)cc1	-3%	1%	-12%
CCOC(=O)N1CCN(CC(=O)N2c3ccccc3CCc3ccccc32)CC1	0%	9%	12%

All compounds of this part, previewed entries included:
SMILES	SARS PLpro yeast	RE007 growth inh	2A StopGo
C[C@@H]1CN([C@H](C)CO)C(=O)c2cc(NC(=O)C3CCCCC3)ccc2O[C@@H]1CN(C)Cc1ccc(C(F)(F)F)cc1	-3%	1%	-12%
CCOC(=O)N1CCN(CC(=O)N2c3ccccc3CCc3ccccc32)CC1	0%	9%	12%
C[C@H]1COC(=O)[C@H](Cc2ccc(F)cc2)C/C=C\C[C@@H](CC(=O)NCCO)C(=O)N1	4%	-1%	-1%
CCN(CC)C(=O)[C@H]1CC(CC(=O)NCCCN(C)C)C(=O)N2CCc3c([nH]c4ccc(OC)cc34)[C@]12C (stereo partly drawn)	5%	-16%	-14%
Cc1cc(NC(=O)C(C)Sc2nnc(NCc3ccco3)s2)no1 (stereo not drawn)	0%	-5%	-7%
Cc1c(Cl)cccc1NC(=O)CNC(=O)c1ccc2c(c1)OCCO2	5%	-26%	40%[activator]
O=C1CN(C(=O)COC(=O)c2cnc(Cl)c(Cl)c2)c2ccccc2N1	-1%	-1%	-17%
CCN(c1ccccc1)S(=O)(=O)c1ccc2c(c1)OCCO2	-9%	5%	-5%
CC(C(=O)N1CCCCC1)N1CCN(S(=O)(=O)c2ccc(Cl)cc2)CC1 (stereo not drawn)	-1%	1%	-16%
NC(=O)C[n+]1ccc(/C=N/O)cc1	-7%	-15%	1%
CC(C)C[C@@H]1CN=C(N)N1C[C@@H]1CCCN1C[C@H](C)N1C[C@@H](Cc2ccccc2)N(CCc2ccc(Cl)c(Cl)c2)C1=N	-1%	14%	-13%
CCCCN1C(=N)N([C@@H](C)CN2CCC[C@H]2CN2C(N)=NC[C@H]2CC(C)C)C[C@H]1[C@H](C)CC	-2%	-18%	-10%
Cc1cc(=O)oc2cc(OCC(=O)OCC(=O)NC(=O)NC(C)C)ccc12	0%	-11%	24%
O=C(CN1C(=O)NC(c2ccccc2)(c2ccccc2)C1=O)N1CCN(c2ccc(F)cc2)CC1	-3%	-16%	-12%
CCCCc1nnc(NC(=O)CCS(=O)(=O)c2ccc(Cl)cc2)s1	5%	24%	-16%
COc1ccc([C@@H]2CC=C(C(=O)O)[C@H](c3ccc(F)cc3)N2S(=O)(=O)c2ccc(Cl)cc2)cc1	-6%	-7%	3%
CC(C)=CCC[C@](C)(O[C@@H]1O[C@H](CO[C@@H]2OC[C@@H](O)[C@H](O)[C@H]2O)[C@@H](O)[C@H](O)[C@H]1O)C1CC[C@]2(C)C1[C@H](O)CC1[C@@]3(C)CC[C@H](O[C@@H]4O[C@H](CO)[C@@H](O)[C@H](O)[C@H]4O)C(C)(C)C3CC[C@]12C (stereo partly drawn)	8%	4%	-18%
CC(NC(=O)CN1C(=O)NC2(CCCCC2C)C1=O)c1ccccc1 (stereo not drawn)	-6%	-6%	-15%
COc1cc(OC)cc(-c2c(-c3cccs3)c3cc(-c4ccc(C(N)=O)cc4)ccc3n2C)c1	3%	0%	0%
Cc1ccc(C(=O)Nc2nc(-c3ccccn3)cs2)s1	-26%	?	-13%
Cn1nnnc1SCC(=O)N1N=C(c2cccs2)CC1c1cccs1 (stereo not drawn)	-8%	-3%	-27%
O=C(CN1C(=O)NC2(CCc3ccccc32)C1=O)NCC(=O)Nc1ccc(F)cc1 (stereo not drawn)	-1%	1%	-3%
Cc1ccccc1[C@@H](NC(=O)OC(C)(C)C)C(=O)OC(C)(C)C	1%	7%	-10%
CC1C/C(=C/c2ccncc2)C(=O)/C(=C/c2ccncc2)C1 (stereo not drawn)	-31%	?	10µM*
CCCCNc1c(-c2ccc(OC)c(Sc3ccc(OC)cc3)c2)nc2ccccn12	0%	-15%	-27%

(next part)
SMILES	SARS PLpro yeast	RE007 growth inh	2A StopGo
COc1ccccc1OCCNC(=O)C1CC(=O)N(Cc2ccccc2)C1 (stereo not drawn)	1%	-9%	-5%
COc1cccc(-n2cnnc2SCC(=O)NC2CC2)c1	1%	8%	-12%
CCN1C(=O)[C@@H]2[C@@H](c3ccc(-c4ccc(Cl)c(Cl)c4)cc3)N3CCCC[C@@]3(C(=O)OC)[C@@H]2C1=O	0%	13%	0%
C[C@H](NC(=O)c1nc[nH]c1C(=O)N(C)Cc1ccccc1)c1ccccc1	-26%	2%	-13%
C[C@]12c3[nH]c4ccccc4c3CCN1C(=O)C(CC(=O)NCC13CC4CC(CC(C4)C1)C3)C[C@@H]2C(=O)N1CCCCC1 (stereo partly drawn)	-4%	9%	-22%
COc1ccc(CCN(C)c2ncnc3sccc23)cc1OC	-9%	1%	28µM*
COc1cccc(CN(C)C(=O)c2ccc(OCC(=O)N3CCOCC3)c(OC)c2)c1	-13%	0%	9%
O=C(O)/C(=C\c1cccc(O)c1)c1ccc(S(=O)(=O)N2CCCC2)s1	-4%	-3%	-6%
CCCCn1c(N)c(N(CCC(C)C)C(=O)c2ccc3ccccc3c2)c(=O)[nH]c1=O	-7%	3%	5%
O=C(OC1CCOC1=O)c1ccccc1C(=O)c1ccc(Cl)c([N+](=O)[O-])c1 (stereo not drawn)	-3%	-13%	-29%
CCOC(=O)c1ccc(S(=O)(=O)n2c(=O)oc3ccccc32)cc1	-2%	2%	0%
CCC1Nc2ncnc(N3CCOCC3)c2N(Cc2ccccc2)C1=O (stereo not drawn)	-1%	-7%	-4%
COc1ccc(S(=O)(=O)N2CCc3ccccc32)cc1C(=O)N1CCN(C=O)CC1	-6%	6%	-5%
NCC12CC3CC(C1)CC(c1ccc(Cl)cc1)(C3)C2	-4%	3%	-29%
CCc1nnc(NC(=O)c2cc(-c3cccnc3)nc3ccccc23)s1	-2%	-16%	-2%
O=C(O)c1ccc(-c2nc(-c3cccc(C(F)(F)F)c3)cs2)cc1	0%	6%	19%
CN(C)c1cccc(C(=O)NNC(=O)/C=C/c2cccs2)c1	1%	-13%	10%
COc1ccc(NC(=O)c2sc(N)nc2-c2ccccc2)cc1	-2%	-7%	-9%
CCN(CC(=O)Nc1ccccc1C(F)(F)F)C(=O)c1ccc2c(=O)n3c(nc2c1)CCC3	1%	-1%	-6%
O=C1CN(C(=O)COC(=O)c2cccc(Br)c2)c2ccccc2N1	-8%	-5%	-10%
O=C(NCc1ccccc1)c1ccc(NS(=O)(=O)c2cccs2)cc1	0%	16%	-11%
CCOc1ccc(NC(=O)COC(=O)CC2CCCCC2)cc1	5%	-19%	-6%
CCN1C(=O)[C@@H]2[C@@H](c3ccc(-c4ccc(C(C)=O)cc4)c(OC)c3)N3CCC[C@@]3(C(=O)OC)[C@@H]2C1=O	-3%	0%	-8%
O=C(OCCc1cc2ccccc2c(=O)o1)c1ccc(F)cc1	2%	-1%	38%[activator]
O=C(O)c1cc(S(=O)(=O)Nc2ccc3cn[nH]c3c2)ccc1O	-9%	2%	6%

An excerpt from above, reduced to 2A StopGo and RE007 growth inh:
molecule | 2A StopGo | RE007 growth inh
O=C(O)/C(=C\c1cccc(O)c1)c1ccc(S(=O)(=O)N2CCCC2)s1 | -6% | -3%
CCCCn1c(N)c(N(CCC(C)C)C(=O)c2ccc3ccccc3c2)c(=O)[nH]c1=O | 5% | 3%
O=C(OC1CCOC1=O)c1ccccc1C(=O)c1ccc(Cl)c([N+](=O)[O-])c1 (stereo not drawn) | -29% | -13%
CCOC(=O)c1ccc(S(=O)(=O)n2c(=O)oc3ccccc32)cc1 | 0% | 2%
CCC1Nc2ncnc(N3CCOCC3)c2N(Cc2ccccc2)C1=O (stereo not drawn) | -4% | -7%
COc1ccc(S(=O)(=O)N2CCc3ccccc32)cc1C(=O)N1CCN(C=O)CC1 | -5% | 6%
NCC12CC3CC(C1)CC(c1ccc(Cl)cc1)(C3)C2 | -29% | 3%

(next part)
SMILES	SARS PLpro yeast	RE007 growth inh	2A StopGo
COc1ccc([C@@H]2CC=C(C(=O)O)[C@H](c3ccc(C(C)(C)C)cc3)N2S(=O)(=O)c2ccc(C)cc2)cc1OC	-1%	7%	0%
CC(c1ccccc1)N(C)CC(=O)NC(=O)NCCC1=CCCCC1 (stereo not drawn)	-1%	-21%	-7%
CCOC(=O)N1CCN(C(=O)CN2C(=O)NC(C)(c3ccc4ccccc4c3)C2=O)CC1 (stereo not drawn)	0%	-2%	?
CC(C)C(=O)Nc1cc(C(F)(F)F)ccc1-n1ccnc1	8%	-9%	-4%
O=C(CN1C(=O)NC2(CCOc3ccccc32)C1=O)NCCc1ccc(F)cc1 (stereo not drawn)	2%	2%	-11%
Cc1ccc(C(C)C)c(OCC(=O)N2CCN(CC(=O)N3CCOCC3)CC2)c1	-2%	0%	7%
Cc1nc(N2CCN(S(=O)(=O)c3ccccc3C#N)CC2)c2c(-c3ccccc3)csc2n1	2%	-1%	?
COc1cc(-c2nc(C)c(C(C)=O)n2O)ccc1OCC(=O)Nc1ccc(F)cc1	2%	-2%	-25%
COCCn1c(SCC(=O)NC(=O)NC2CCCCC2)nc2ccccc2c1=O	5%	-17%	?
COc1cc(CCCN2CCNC[C@@H]2Cc2ccccc2)cc(OC)c1OC	?	-12%	-19%
CC(C)C(NC(=O)C1CCCCC1)C(=O)NCCc1ccccc1 (stereo not drawn)	-5%	-20%	-2%
CN1CCN(S(=O)(=O)c2cccc(C(=O)N(C)Cc3c(F)cccc3Cl)c2)CC1	-1%	-4%	19%
COc1ccc(C(CNC(=O)CCNC(=O)c2ccccc2Cl)N2CCCC2)cc1 (stereo not drawn)	-1%	-1%	-12%
CCC(=O)c1ccc(OCC(=O)NC2CCN(Cc3ccccc3)CC2)cc1	6%	2%	-2%
CC1CCCN(C(=O)c2cc(-c3ccco3)nc3ccccc23)C1 (stereo not drawn)	-3%	7%	-2%
Cc1cc(C)n2nc(C(=O)Nc3ccc4c(c3)OCCO4)nc2n1	2%	-1%	22%
CCCCNC(=O)C(=O)N/N=C/c1ccc(OCc2ccccc2)cc1	0%	-6%	-10%
NC(=O)c1cc([N+](=O)[O-])ccc1NCC1CCCCC1	-13%	-4%	19%
CN(C)CCCNC(=O)C[C@H]1C[C@H](C(=O)N2CCOCC2)[C@@]2(CCC3CCCC3)c3[nH]c4cc(CCC(=O)N(C)C)ccc4c3CCN2C1=O	-8%	3%	-5%
O=c1oc([C@@H](O)c2ccccc2)cc2ccccc12	-46%	1%	10%
C[C@H]1CN=C(N(C)C)N1CC1CCC(C(C)(C)C)CC1 (stereo partly drawn)	-1%	4%	?
CCSc1ccc(C(=O)Nc2ccc(Br)cn2)cc1[N+](=O)[O-]	-6%	-7%	-4%
CC(C)Cn1c(SCC(=O)O)nnc1-c1cccc(S(=O)(=O)N2CCOCC2)c1	4%	9%	-13%
CC1(C)Oc2ccc3ccc(=O)oc3c2[C@H](O)[C@H]1O	8%	4%	-15%
CCOC(=O)[C@H]1[C@H]2COc3ccc(Br)cc3[C@@H]2N2C(=O)c3c(C)cc(C)cc3NC(=O)[C@@]12C	-3%	0%	?

Additional records follow:
SMILES	SARS PLpro yeast	RE007 growth inh	2A StopGo
COC(=O)C1=C(c2ccc(C(C)=O)cc2)C[C@@H]2CC[C@H]1N2C(=O)NC1Cc2ccccc2C1	-4%	10%	-7%
CCOc1ccccc1NC(=O)c1ccc(S(=O)(=O)N(C)c2ccccc2)cc1	3%	-6%	-16%
CCN(CC)CCNC(=O)c1ccc(NC(=O)c2ccc(F)cc2)cc1	-2%	-11%	-13%
CS(=O)(=O)c1ccc(Cl)c(C(=O)OCC(=O)NC2CCCCCCC2)c1	0%	5%	-24%
COC(=O)[C@]1(C)N[C@H](CN(C)C(=O)Nc2ccccc2)[C@@H]2C(=O)N(C)C(=O)[C@@H]21	-3%	7%	-10%
CCN(CC)S(=O)(=O)c1ccc(N2CC(C(=O)NCCC3=CCCCC3)CC2=O)cc1 (stereo not drawn)	7%	5%	-8%
O=C(c1ccc(S(=O)(=O)N2CCc3ccccc3C2)cc1)N1CCCCC1	-2%	12%	-24%
O=C(COc1cccc(C(F)(F)F)c1)NCC(c1cccs1)N1CCOCC1 (stereo not drawn)	13%	-14%	-22%
Cc1sc2ncnc(NCCCN3CCCC3=O)c2c1C	-1%	-14%	-9%
COCCn1c(SCC(=O)NC2CC2)nc2ccccc21	-2%	6%	-10%
COCCN(Cc1ccccc1)C(=S)Nc1ccc(Cl)cc1	1%	3%	40%[activator]
CC(=O)c1ccc(NC(=O)CN2C(=O)NC(C)(c3ccc4c(c3)OCCO4)C2=O)cc1 (stereo not drawn)	2%	-7%	-15%
COc1ccc2ccc(OCC(=O)N3c4ccccc4NC(=O)CC3C)cc2c1 (stereo not drawn)	-15%	-12%	-3%
O=C(Nc1ccc(F)cc1F)C1(c2cccs2)CCOCC1	5%	3%	12%
CCOC(=O)CSc1nnc(NC(=O)NC(C)C)s1	0%	-2%	-6%
CC1=C(C(=O)OCC2CCCO2)C(c2coc3ccccc3c2=O)C2=C(CCCC2=O)N1 (stereo not drawn)	-7%	7%	15%
